# PrP UTR inh – suppresses PrP 5' UTR mRNA reporter expression; cell-based PrP 5' UTR mRNA reporter, plate reader; inhibition, % (concentration not given with the values); hit rate 0.35% among 340,000;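 active = every replicate at 50% or more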;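 note: 0 = median of the neutral control wells; tested in H4 reporter cells; numbers are from one replicate; inactives centre near -14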
# Bead autofluor – flagged as autofluorescent in microsphere protease counterscreen | compound autofluorescence counterscreen, microsphere flow cytometry; hits give high values | fluorescence intensity (concentration not given with the values) | hit rate 3.1% among 360,000 | AID 624483;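 active = at least 3 SD above the mean of all compounds, about 16000 in these data; inconclusive = too few beads counted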;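 note: 100 nL of 1 mM stock went into each well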
# ugtP null kill – compounds lethal to S. aureus RN4220 ugtP deletion mutant; OD600 growth, 16 h; some inactives read as strong as hits; growth inhibition, % (concentration not given with the values); hit rate 0.54% among 330,000; AID 1259309;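 active = z-score under -3 and OD600 up to 0.15 on both plates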;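 note: plate controls were untreated wells for no effect and antibiotic for full effect; wells of about 80 µL received 100 nL stock; the first replicate is given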
# Mtb hypoxia inh – reduces hypoxia-regulated biosensor signal in M. tuberculosis. hit rate 0.1% among 300,000. AID 1159583. fluorescence inhibition, % (no concentration beside the values). M. tuberculosis hypoxia-regulated fluorescent reporter, fluorescence;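 active = 35 to 45% if threefold the growth effect, above 45% if 1.5-fold the growth effect; inactive = the rest, general growth blockers included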;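 note: wells of about 50 µL received 100 nL stock; 0% = vehicle wells and 100% = reference inhibitor wells; whole bacteria with a GFP reporter of the hypoxia response; strong numbers were not always called active; many hits fall short of the cut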
# BJeLR viability – BJeLR cell viability loss; BJeLR (HRASV12) viability, CellTiter-Glo ATP luminescence, 48 h; reference of the scale not given here; inhibition, % (concentration not given with the values); hit rate 0.17% among 300,000;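 active = replicate mean above 50%; inconclusive = above 50% but judged a plate artefact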;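 note: 50 nL library stock added to about 25 µL; numbers are from one replicate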
# Sa RN4220 lethal – kills Staphylococcus aureus RN4220; S. aureus RN4220 growth, OD600, 16 h; inhibition, % (no concentration beside the values); hit rate 0.33% among 330,000; AID 1259311;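 active = z-score of -3 or lower and OD600 up to 0.18 on both plates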;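 note: plate controls were untreated cells for no effect and reference antibiotic for full effect; stock transfer was 100 nL into about 80 µL; one replicate is shown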
# Mtb hypoxia inh growth – second read-out of Mtb hypoxia inh, no call of its own (marks repeat the call); growth inhibition, %; measured here: M. tuberculosis growth (absorbance);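 0% = vehicle and 100% = reference antibiotic; read after six days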
# Numbers without * were called inactive; ? = inconclusive; . = not tested or not shown.
# Under each structure – PrP UTR inh	Bead autofluor	ugtP null kill	Mtb hypoxia inh	Mtb hypoxia inh growth	BJeLR viability	Sa RN4220 lethal
COCCOC(=O)c1c(NC(=O)CN2CCOCC2)sc(C(N)=O)c1C
→ -23	3101	1	.	.	4	1.1
O=C(CC(C(=O)O)C1CCCO1)Nc1cccc(C(F)(F)F)c1 (stereo not drawn)
→ -21	9631	0	6	4	-4	2.5
CCc1nc(SCC(=O)Nc2ccc(OC)cc2[N+](=O)[O-])n[nH]1
→ -28	5446	0	10	-1	-1	3.1
COc1ccc(S(=O)(=O)NC2CCCCC2)cc1C
→ -16	5312	5	0	5	1	1.4
COc1ccc(-c2ccc(SCC(=O)c3ccc(F)cc3)nn2)cc1OC
→ -1	4254	7	2	-5	0	-14
CSc1ncccc1C(=O)NC(C)CCc1ccccc1 (stereo not drawn)
→ 4	4079	-4	9	-1	5	1.7
O=C(NN=Cc1cc(Cl)ccc1O)c1ccccc1Br
→ .	.	17	-3	-2	.	1.8
CCC(=O)N(Cc1cc2ccc(C)cc2n2nnnc12)C1CCCCC1
→ -15	8823	0	9	11	-19	6.3
CCC(CO)Oc1cc(NCc2cccc(O)c2)c2ncn(C(C)C)c2c1 (stereo not drawn)
→ -8	3532	-10	18	15	.	6.1
O=C(Cn1cc([N+](=O)[O-])cn1)N1CCc2ccccc21
→ -15	5415	12	9	8	3	4.1
CC(=O)Nc1ccccc1NC(=O)CC(C)=NNC(=O)C(=O)N1CCCCC1
→ .	.	15	7	1	.	1.1
Oc1ccc(/C=N/Nc2ncnc3c2ncn3Cc2ccccc2)cc1O
→ -10	2154	.	.	.	-2	.
Cc1nnsc1-c1nnc(SCC(=O)c2ccc(C#N)cc2)n1C1CC1
→ -22	5481	-17	-4	4	6	4.6
CCCCCC(=O)Nc1ccc(S(=O)(=O)Nc2nccc(C)n2)cc1
→ -19	4266	12	3	8	-1	0.6
COC(=O)c1ccc(Oc2ccc3nnc(C)n3n2)cc1
→ -17	2304	-3	-2	4	8	-1.0
O=C1CCc2cc(S(=O)(=O)NCc3ccccc3Cl)cc3c2N1CC3
→ -7	?	1	1	1	4	6.8
CCn1cnc2cc(NCc3cccc(OC)c3O)ccc21
→ -28	7113	-3	5	-1	2	1.8
CCN(Cc1ccccc1)C(=O)C(C)OC(=O)c1cc(S(=O)(=O)Nc2c(C)n(C)n(-c3ccccc3)c2=O)ccc1C (stereo not drawn)
→ -9	3915	0	10	5	11	3.6
CCOC(=O)/C(C#N)=C/c1cccn1-c1ccc(Cl)cc1
→ .	4617	7	13	1	-7	3.1
CCOC(=O)c1c2c(n(C)c1C)C(=O)C(=O)c1ccc(Br)cc1-2
→ 14	8103	95*	-73	-2	55*	95*

# The final two compounds of the part before are carried over, then new ones follow:
# Under each structure – PrP UTR inh	Bead autofluor	ugtP null kill	Mtb hypoxia inh	Mtb hypoxia inh growth	BJeLR viability	Sa RN4220 lethal
CCOC(=O)/C(C#N)=C/c1cccn1-c1ccc(Cl)cc1
→ .	4617	7	13	1	-7	3.1
CCOC(=O)c1c2c(n(C)c1C)C(=O)C(=O)c1ccc(Br)cc1-2
→ 14	8103	95*	-73	-2	55*	95*
O=C(c1cn(-c2ccccc2)nc1-c1ccc(F)cc1)N1CCCCC1
→ -7	2168	3	6	-3	2	-0.6
COc1cc(/C=N/NC(=O)C2COc3ccccc3O2)cc(OC)c1OC (stereo not drawn)
→ -2	2184	.	.	.	-14	.
Nc1nc(SCC(=O)N2CCCCC2)[nH]c(=O)c1NC(=O)c1ccccc1F
→ -19	5542	0	2	9	-2	-1.2
CCCCNC(=O)Cc1ccc(Br)cc1
→ -16	5240	-17	.	.	-3	-4.6
COc1cc(S(=O)(=O)NCc2ccncc2)c(OC)cc1Cl
→ 3	2789	0	-1	5	-7	-0.6
Fc1ccc(CSc2nnc(-c3cnccn3)n2Cc2ccco2)cc1
→ -5	24676*	7	3	10	-4	4.8
O=C(NNc1cc(Cl)ccc1Cl)c1cccnc1Cl
→ -11	4242	-4	14	3	3	-1.2
CCOC1OC(C(=O)N2CCN(Cc3ccc4c(c3)OCO4)CC2)=CC(c2ccc(C(F)(F)F)cc2)C1CCCO (stereo not drawn)
→ .	.	-29	1	7	.	2.2
Cc1cccc(C)c1NC(=S)N=Nc1c(O)n(C)c2ccc(S(=O)(=O)N3CCOCC3)cc12
→ -20	2480	-2	5	14	-3	-0.6
CCc1ccc(C2=NN(c3ccc(S(N)(=O)=O)cc3)C(c3ccc(F)cc3)C2)cc1 (stereo not drawn)
→ -24	3019	9	-5	8	-1	66
Cc1ccc(NC(=O)c2nc(S(=O)(=O)Cc3ccccc3)ncc2Cl)cc1
→ -5	4407	.	.	.	31	.
Cc1ccc(C(=O)NCc2ccc3c(c2)OCO3)cc1S(=O)(=O)N1CCCCC1
→ -20	3294	11	16	14	-2	7.5
Cc1cccc(C(=O)NCc2nnc(SCc3ccc(F)cc3)n2C)c1
→ -10	4483	4	7	5	-11	-5.6
O=C(NCc1ccccn1)c1ccc(Cl)c(S(=O)(=O)Nc2ccccc2C(=O)NCc2ccccn2)c1
→ 1	2225	12	7	2	-4	-1.1
COc1cc(/C=C2\C(=O)ON=C2c2ccc(Cl)cc2)ccc1O
→ .	.	5	1	4	-10	1.7
Cc1cc(C)n2nc(C(=O)OCC(=O)N3CC(C)CC(C)C3)nc2n1 (stereo not drawn)
→ -15	5283	4	-3	-5	-4	5.4
COc1ccc(OC)c(/C=N/NC(=O)c2cccc3ccccc23)c1
→ -6	4383	.	.	.	-4	.
O=C(COc1ccccc1)N/N=C/c1ccc([N+](=O)[O-])o1
→ 6	2411	.	.	.	-6	.
O=C(CCc1ccccc1)NN=Cc1cccc(O)c1
→ .	.	-7	5	3	.	0.6
Cc1ccc(OCc2nc(-c3cccnc3)no2)cc1C
→ -18	4763	-8	5	0	-1	0.8
CC(=O)CCc1ccc(OCC(O)CNC2CCCc3ccccc32)cc1 (stereo not drawn)
→ -11	2866	7	0	2	2	2.5
Cc1onc(-c2ccccc2Cl)c1C(=O)N1CCCCC1C (stereo not drawn)
→ -10	3898	-2	-8	-11	-5	0.2
CCCCC(=O)Nc1nc2ccc3nc(C)sc3c2s1
→ -9	6003	3	1	1	1	3.7
COc1ccc(N2CC(NC(=O)NCC(C)C)CC2=O)cc1 (stereo not drawn)
→ -9	2365	5	11	4	1	0.9
O=C(NCCC1=CCCCC1)C1CCN(S(=O)(=O)c2cccc3nonc23)CC1
→ .	.	8	.	.	-9	3.5
Cc1ccc(NC(=O)C2CCN(c3cnccn3)CC2)cc1C
→ -16	4109	0	0	-8	0	3.1
COc1ccc(CNC(=O)COC(=O)C2CC3C=CC2C3)cc1 (stereo not drawn)
→ -5	2157	4	8	10	2	1.3
S=C(NCc1ccccc1)Nc1nccs1
→ -28	3420	.	.	.	-10	.
Cc1c(Br)c([N+](=O)[O-])nn1CCCC(=O)Nc1c(C)n(C)n(-c2ccccc2)c1=O
→ -4	5461	4	5	-1	-5	1.1
O=S(=O)(/N=C(/Nc1ccc(Cl)cc1Cl)c1ccccc1)c1cccs1
→ 1	4366	5	9	-3	11	3.2
Cc1occc1-c1nnc(SCC(=O)NC2CCCC2)n1C
→ -16	3916	-1	-4	13	-2	2.9
CCc1ccc(CNC(=O)CCCn2nc(C)n3ccnc3c2=O)cc1
→ -13	6673	-3	10	9	1	-4.5
Cc1ccc(N=C/C(C(=O)C(F)(F)F)=C(\O)c2ccco2)cc1Cl
→ -134	2081	-2	5	10	2	4.3
O=C(Nc1cc2c(cc1Cl)OCCCO2)c1ccco1
→ -73	2369	9	3	1	-7	6.0
Cc1cc(C)c(S(=O)(=O)Nc2ccccc2-c2ccccc2)c(C)c1
→ -25	2606	6	11	5	-18	7.8
Fc1ccc(C2=Nn3c(nnc3-c3ccco3)SC2)cc1
→ -12	3407	5	-1	4	-7	6.6
CS(=O)(=O)N(CCc1ccccc1)CC(=O)N1CCCCC1
→ 4	3391	1	-3	-8	-2	1.8
O=C(O)c1ccc(/C=N/N2CCN(Cc3ccccc3)CC2)cc1
→ -7	2553	.	.	.	11	.
CCOC(=O)Nc1sc2c(c1C(N)=O)CCC(C)C2 (stereo not drawn)
→ -32	4113	2	16	4	2	0.5
N#CCCN1CCN(C(=O)c2c(N)no[n+]2[O-])CC1
→ -18	4275	0	-12	-1	3	-1.6
Cc1nc2sc(C(c3cccc(F)c3)N3CCCCC3)c(O)n2n1 (stereo not drawn)
→ -15	5029	4	12	2	-1	-0.4
O=C1CCN(C(=O)Cc2ccccc2[N+](=O)[O-])CC1
→ -1	4436	7	-1	4	2	0.3
CCCCCCCNC(=O)C1(CC2CC(c3ccc(Cl)cc3)=NO2)CCN(C(=O)CCCCCBr)CC1 (stereo not drawn)
→ -5	3395	8	-6	-7	-5	-1.7
O=C(O)c1ccccc1-n1cnnn1
→ -5	4383	6	6	-4	-1	3.7
Cc1ccc(S(=O)(=O)NC(=O)Nc2cccc(S(=O)(=O)N(C)C)c2)cc1
→ -7	?	8	2	2	.	6.3
COc1ccc(Cl)cc1NC(=O)C12CCC(C)(C(=O)O1)C2(C)C (stereo not drawn)
→ -19	11956	1	4	3	-19	1.7
O=C(O)c1cccc(C(=O)O)c1
→ 2	5623	-9	.	.	9	0.6
O=C(NCc1ccc(N2CCCC2=O)cc1)Nc1cccc(Cl)c1
→ -20	4403	-1	18	8	-1	-6.0
Cc1onc(-c2ccccc2Cl)c1C(=O)NCc1ccccc1F
→ -15	5238	-1	14	3	10	3.8
CCC1CCCCN1C(=O)c1ccc(OC)c(OC2CCN(C(C)C)CC2)c1 (stereo not drawn)
→ -4	4216	4	1	-10	-1	2.6

# The listing continues:
# Under each structure – PrP UTR inh	Bead autofluor	ugtP null kill	Mtb hypoxia inh	Mtb hypoxia inh growth	BJeLR viability	Sa RN4220 lethal
O=C(CSCc1c(F)cccc1Cl)NNC(=S)NC1CCCCC1
→ -7	4990	-1	-2	13	2	-1.0
O=C(CNS(=O)(=O)c1c(Cl)cccc1Cl)OCC(=O)N1CCN(c2ccccc2)CC1
→ -13	9749	10	11	8	2	4.8
COc1cccc(N2CC(NS(=O)(=O)c3cccnc3)CC2=O)c1 (stereo not drawn)
→ -12	.	0	-13	0	-10	1.6
Cc1cccc(-c2cc3nc(C)c(C)c(NCCCn4ccnc4)n3n2)c1
→ -31	4103	-1	12	-5	0	1.7
O=C(N1CCOCC1)N1CCCN(C(=O)N2CCOCC2)CC1
→ -12	5510	7	.	.	6	-4.0
O=C(CNC(=O)/C(=C/c1ccccc1)NC(=O)c1ccc(Br)cc1)OCc1ccccc1
→ -43	2171	-2	17	12	-9	11
COC(=O)CC(N)c1ccc(Br)cc1 (stereo not drawn)
→ -12	3038	10	6	8	0	6.0
CCS(=O)(=O)N1CCN(c2ccccc2F)CC1
→ -13	3825	5	9	8	-5	4.5
Cc1ccccc1S(=O)(=O)Cc1ccc(C(=O)NCCCN2CCCC2)o1
→ -3	7418	3	6	3	11	1.0
O=C(O)CCCC(=O)N1CC(=O)Nc2ccccc21
→ -3	2955	-2	7	9	-7	-7.1
COc1ccc(-n2c(CNc3ccc(C)cc3)nnc2SCC(=O)Nc2nc(-c3ccccc3)cs2)cc1
→ -2	24302*	-4	1	17	-17	0.7
O=C(/C=C\c1ccccc1)NCC(=O)NN=Cc1ccc(O)cc1O
→ .	.	5	8	-6	.	3.1
S=C(NCCN1CCOCC1)Nc1cccc2ccccc12
→ -25	2488	2	-3	6	-6	-0.4
CCN(CC)c1ccc(/C=N/NC(=O)Cc2ccc(OC)c(OC)c2)cc1
→ -27	5228	.	.	.	-9	.
O=C(O)c1ccc(Nc2cc(Cl)c3nonc3c2[N+](=O)[O-])cc1
→ -13	3288	.	.	.	0	.
Cc1ccc(-c2nnc(Nc3ccc4c(c3)OCO4)c3ccccc23)cc1S(N)(=O)=O
→ -9	9207	-3	1	3	11	-0.8
CC1=C(C(=O)OCc2ccc3c(c2)OCO3)C(c2ccc(F)cc2)NC(=O)N1 (stereo not drawn)
→ 26	4488	1	8	-3	22	1.3
CCC(c1nnc(SCC(=O)Nc2nnc(-c3ccccc3)o2)n1Cc1ccccc1)N(C)C (stereo not drawn)
→ -8	7741	6	5	0	-10	4.3

# Screens deposited in PubChem by several laboratories.

# Random draw from the library; any-hit rate near 4%.
